# Screening data deposited in PubChem BioAssay by several laboratories.
# rRNA inh HTS – inhibits bacterial ribosomal RNA function over humanized ribosomes. GFP signal change (wild-type ribosome), % (concentration not given with the values). E. coli WT GFP vs humanized-ribosome RFP mutants, fluorescence, 24 h; active compounds read low; DMSO median 0, no signal -100. 350,000 tested, 1.6% active;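 active means significant combined selectivity score with lowered wild-type GFP, culture density cut under 30%, mutant RFP and density less affected; inactive means any of these conditions unmet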; further: one replicate is shown; some compounds called inactive have numbers as strong as hits
# FGF22 binding – binders of recombinant human FGF22 by thermal shift; AID 651658; calls only at 9.99 µM; SYPRO orange fluorescence; percent of sucrose octasulfate shift, DMSO zero; 340,000 tested, 1.5% active;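 active means melting point raised past a set limit in the mean and every replicate; three in four hits are not shown here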
# Target sequence (Q9HCT0 whole entry, looked up): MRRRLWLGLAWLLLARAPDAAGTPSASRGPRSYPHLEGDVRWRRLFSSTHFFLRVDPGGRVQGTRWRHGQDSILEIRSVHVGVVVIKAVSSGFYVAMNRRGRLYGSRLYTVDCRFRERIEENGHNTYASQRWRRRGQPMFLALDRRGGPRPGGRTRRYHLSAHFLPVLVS
# ALR H2O2 inh – blocks human ALR sulfhydryl oxidase activity | P55789 | purified ALR, DTT oxidation, H2O2 HRP-luminol luminescence | inhibition, % (test concentration not listed) | 290,000 tested, 3.8% active;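 active means mean and each replicate at 75% or more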;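 further: stock transfer was 7.5 nL into about 7.5 µL; 0% = neutral wells and 100% = wells with inactivated enzyme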
# Target sequence (P55789 whole entry, looked up): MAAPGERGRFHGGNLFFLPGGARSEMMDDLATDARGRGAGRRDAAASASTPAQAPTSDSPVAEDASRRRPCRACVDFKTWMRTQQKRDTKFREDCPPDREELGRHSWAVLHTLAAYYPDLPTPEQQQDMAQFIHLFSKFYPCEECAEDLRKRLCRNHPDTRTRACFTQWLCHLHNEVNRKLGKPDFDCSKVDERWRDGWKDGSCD
# E coli growth – inhibitors of Escherichia coli growth; 330,000 tested, 0.21% active; OD600, 23 h; active compounds read low; OD600 absorbance (no concentration beside the values);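 active means OD600 absorbance below the run mean of sample wells minus 3.6 SD, in any replicate, cut at about 0.56 in these data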;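 further: stock transfer was 300 nL into about 60 µL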
# HNF4A DNA FP – change in binding of human HNF4 alpha to DNA. P41235. HNF4a-FITC DNA binding, fluorescence polarization, 1 h. activity change, % at 10 µM. 360,000 tested, 0.3% active. AID 1224865; in the data active means activity change above about 30%, passing the limit was not always enough;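 further: controls were the assay level and a saturating level of protein; the project sought stronger binding though the title names inhibitors; some compounds called inactive have numbers as strong as hits; positive values seem to mean higher polarization but the record does not say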
# Vif A3G – HIV-1 Vif–A3G interaction blockers – biochemical, TR-FRET, GST-Vif 1-94, biotin-A3G peptide, dose response retest, primary screen (AID 1117319); inhibition, %, or IC50 in µM where a hit was titrated; 260,000 tested, 0.57% active; TR-FRET GST-Vif / biotin-A3G peptide binding; higher % means a stronger effect; test concentration not given here; strong numbers were not always called active;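 active means above the screen mean plus three standard deviations and confirmed in dose response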;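 further: Vif residues 1-94 fused to GST binding biotinylated APOBEC3G peptide 110-148; 0% = full assay without inhibitor and 100% = GST in place of GST-Vif; retest series ran down from 100 µM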
# MLL AF4-AF9 inh – inhibitors of human MLL-AF4/AF9 interaction. inhibition, % at 10 µM. AlphaScreen, biotin-AF4 peptide binding to FLAG-AF9. 350,000 tested, 0.47% active. P42568;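 active means every replicate reaching a set inhibition limit, whatever the replicate mean, cut at about 25% in these data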;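 further: 0% = plate neutral control median and 100% = total signal loss; the record names both 10 and 1 µM as test concentration; the first replicate is given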
# Target sequence (P42568 whole entry, looked up): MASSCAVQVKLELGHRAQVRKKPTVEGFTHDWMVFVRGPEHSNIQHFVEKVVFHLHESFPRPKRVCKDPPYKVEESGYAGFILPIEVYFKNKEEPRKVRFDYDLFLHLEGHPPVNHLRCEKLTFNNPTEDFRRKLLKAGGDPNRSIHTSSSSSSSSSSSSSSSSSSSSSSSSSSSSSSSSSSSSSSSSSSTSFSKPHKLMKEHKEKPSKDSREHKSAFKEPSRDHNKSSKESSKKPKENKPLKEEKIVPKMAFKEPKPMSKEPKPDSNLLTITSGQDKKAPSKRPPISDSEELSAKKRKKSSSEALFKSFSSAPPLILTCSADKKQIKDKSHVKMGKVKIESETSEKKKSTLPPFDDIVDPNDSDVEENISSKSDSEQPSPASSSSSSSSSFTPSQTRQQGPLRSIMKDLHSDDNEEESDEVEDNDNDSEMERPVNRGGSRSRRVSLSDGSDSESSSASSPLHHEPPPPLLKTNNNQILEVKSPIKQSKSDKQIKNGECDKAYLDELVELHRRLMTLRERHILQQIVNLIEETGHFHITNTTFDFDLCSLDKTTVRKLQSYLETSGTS
# rRNA inh HTS OD600 – further read-out of rRNA inh HTS, marked with its call; OD600 change, %; measured here: OD600 growth;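 optical density of the mix in the first replicate; 0 = DMSO median and -100 = no signal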
# rRNA inh HTS RFP – further read-out of rRNA inh HTS, marked with its call; RFP signal change, %; measured here: RFP humanized mutant strains;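 first replicate; 0 = DMSO median and -100 = no signal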
# * marks the source's active call; other numbers are inactive results; i = inactive; . = no result given; & = joins results of further samples.
SMILES,rRNA inh HTS,rRNA inh HTS OD600,rRNA inh HTS RFP,FGF22 binding,ALR H2O2 inh,E coli growth,HNF4A DNA FP,Vif A3G,MLL AF4-AF9 inh
c1ccc(SCCOCCn2cncn2)cc1,.,.,.,.,3,0.72,0.4,14%,.
O=C(Nc1ccccc1N1CCOCC1)c1ccc(OCc2cscn2)cc1,-21,-23,-1.1,i,0,0.7,3.3,.,-1.0
CCC(Sc1nncn1C)C(=O)Nc1ccccc1OC (centres undefined),.,.,.,.,0,0.66,-2.6,4%,.
COc1ccc(C(=O)Nc2ccc3[nH]ccc3c2)cc1,-31*,-21*,-4.2*,i,-8,0.65,1.0,.,2.9
CC(NC(=S)Nc1ccc(S(N)(=O)=O)cc1)c1ccc2c(c1)OCO2 (centres undefined),.,.,.,.,22,0.69,-0.1,-8%,.
COC(=O)c1ccccc1NC(=O)Nc1cc(C(C)(C)C)on1,1,-2,-1.0,i,-2,.,4.3,.,1.8
Nc1ccccc1Sc1nc2ccccc2[nH]1,.,.,.,i,12,0.69,-1.4,-4%,-3.6
O=C(Nc1cccc(CNCCc2c[nH]c3ccccc23)c1)c1ccccc1Cl,-4,-29,5.3,i,2,0.59,-2.0,4%,35*
CC(C)=CC(=O)Nc1ccc(S(=O)(=O)Nc2ccccn2)cc1,11,7,-2.3,i,-5,0.65,3.5,1%,-17
O=C(O)c1ccccc1N/C=C\[N+](=O)[O-],17,14,12,i,-23,0.69,-0.6,11%,-2.1
CCN(CC(=O)Nc1c(F)cccc1F)C(=O)CNC(=O)c1ccco1,-3,4,-3.7,i,-30,0.62,-3.6,1%,-1.6
CCN(CC)C(=O)[C@H]1C[C@H](CC(=O)NCc2cccc(C(F)(F)F)c2)C(=O)N2CCc3c([nH]c4ccc(Cl)cc34)[C@]12C,11,-9,3.8,i,.,0.7,1.8,0%,2.2
CCOC(=O)C(C)n1cnc2c(nnn2-c2cccc(Cl)c2)c1=O (centres undefined),2,-6,-5.0,i,.,0.78,2.8,18%,-0.8
CCCCc1ccc(NC(=O)Nc2c(C)n(C)n(-c3ccccc3)c2=O)cc1,5,12,0.7,i,-3,0.74,3.4,-1%,0.1
CCOC(=O)Cc1csc(NC(=S)NC(=O)c2ccc(Cl)cc2)n1,.,.,.,.,-6,0.81,-0.6,2%,.
COc1ccc(NC(=O)N(C)C[C@H]2Oc3c(NC(=O)c4nc5ccccc5s4)cccc3C(=O)N([C@@H](C)CO)C[C@H]2C)cc1,-2&-5,-14&-4,2.7&5.1,i,0,.,1.7,.,4.9&6.0
CN1C(=O)C(c2ccccc2[N+](=O)[O-])C(=O)c2ccccc21 (centres undefined),5,12,-5.5,i,-7,0.68,0.6,-10%,-7.8
Cc1noc(C)c1NC(=O)N(C)C[C@H]1Oc2ccc(NC(=O)Cc3ccccc3)cc2C(=O)N([C@H](C)CO)C[C@H]1C,2,3,-1.6,i,.,.,.,.,-0.7
CCOc1ccccc1C(=O)OCC(=O)NCc1ccc2c(c1)OCO2,-1,-4,4.8,i,-2,0.72,3.0,-4%,0.3
Cc1ccc2c(N)c(C(=O)c3ccccc3)sc2n1,-34*,-0.6*,-10*,i,-1,0.67,-0.9,4%,3.3

# Entries of single compounds from above. Order of screens: rRNA inh HTS | rRNA inh HTS OD600 | rRNA inh HTS RFP | FGF22 binding | ALR H2O2 inh | E coli growth | HNF4A DNA FP | Vif A3G | MLL AF4-AF9 inh
# Listed for CCN(CC)C(=O)[C@H]1C[C@H](CC(=O)NCc2cccc(C(F)(F)F)c2)C(=O)N2CCc3c([nH]c4ccc(Cl)cc34)[C@]12C → 11 | -9 | 3.8 | i | . | 0.7 | 1.8 | 0% | 2.2
# Listed for CC(NC(=S)Nc1ccc(S(N)(=O)=O)cc1)c1ccc2c(c1)OCO2 (centres undefined) → . | . | . | . | 22 | 0.69 | -0.1 | -8% | .

# The list continues:
SMILES,rRNA inh HTS,rRNA inh HTS OD600,rRNA inh HTS RFP,FGF22 binding,ALR H2O2 inh,E coli growth,HNF4A DNA FP,Vif A3G,MLL AF4-AF9 inh
O=C(N[C@@H]1CC[C@@H](CCNC(=O)c2ccccc2F)O[C@H]1CO)c1cnccn1,-2,-3,-1.6,i,.,.,.,.,1.8
Cn1nnnc1SCC(=O)N1CCN(c2cccc(Cl)c2)CC1,.,.,.,.,.,0.77,0.1,1%,.
O=C(NC1CCCCC1)[C@H]1[C@H](CO)[C@H]2Cn3c(cccc3=O)[C@@H]1N2Cc1cccnc1,0,-1,-0.3,i,.,.,.,.,-0.4
Cc1cccc(NC(=O)CSc2cccc3cccnc23)c1C,-7,-10,1.2,i,-3,0.72,4.0,.,-4.8
Cc1noc(C)c1S(=O)(=O)Nc1ccc2c(c1)CC(=O)N([C@H](C)CO)C[C@H](C)[C@H](CN(C)S(=O)(=O)c1ccccc1)O2,0,-3,-0.3,i,.,.,.,.,-1.8
COc1ccc(N(C(=O)c2snc(C(N)=O)c2N)C(C(=O)NC2CCCC2)c2ccco2)c(OC)c1 (centres undefined),-4,0,3.6,i,.,0.68,3.6,.,14
O=C(Nc1cccc(C(=O)O)c1)/C(=C\c1ccco1)NC(=O)c1ccc(Br)o1,16,3,0.6,i,.,0.61,-2.9,.,-1.5
COc1ccc(S(=O)(=O)NCc2ccco2)cc1-c1nnc2c3ccccc3c(C)nn12,.,.,.,.,-7,0.74,2.8,4%,.
O=C(c1cccc(F)c1)N1C[C@H]2[C@@H](c3ccccc31)[C@H](CO)N2C(=O)C1CC1,3,6,0.3,i,.,.,.,.,0.2
COc1ccc(C2(C)NC(=O)N(CC(=O)Nc3ccc(S(=O)(=O)N4CCCC4)cc3)C2=O)cc1 (centres undefined),-8,-3,4.9,i,-3,0.74,-1.0,.,3.6
CS(=O)(=O)N1CCCC(C(=O)NCc2cccs2)C1 (centres undefined),0,-4,-8.5,i,-19,0.66,-1.5,1%,6.5
NC(=O)c1cccc(-c2ccnc3c2CC(C(=O)Nc2ccccc2)O3)c1 (centres undefined),-11,-9,-8.5,i,.,.,4.7,.,-0.5
Cc1noc(C)c1COC(=O)COc1ccc(C#N)cc1,14,10,1.7,i,-4,0.66,-3.5,-2%,0.0
CN(C)C(=O)c1cccc(-c2ccc([C@@H]3[C@@H](CO)N4CCCCN(CC5CCOCC5)C[C@@H]34)cc2)c1,2,-10,-3.7,i,.,.,.,.,0.0
CN(Cc1ccccc1)C(=O)COC(=O)c1cc(=O)[nH]c2ccccc12,-1,-9,-3.5,i,-6,0.71,1.3,-5%,-0.5
COc1ccc2c3c(n(C)c2c1)[C@@H](CO)N(Cc1ccc(F)cc1)CC31CN(CC2CC2)C1,5,-1,-0.3,i,.,.,.,.,6.4
CC(NC(=O)C1CCC1)c1ccc(Cl)cc1 (centres undefined),.,.,.,.,.,0.7,3.0,-6%,.
CN(CC(=O)Nc1ccc(F)c(F)c1F)C(=O)C1CCN(C(=O)Nc2ccccc2)CC1,7,13,-3.7,i,1,0.66,0.9,2%,0.5
CCN(CC)S(=O)(=O)c1cccc2c(N(C)C)cccc12,.,.,.,.,-2,0.67,-1.9,2%,.
O=C(C[C@H]1C=C[C@@H](NC(=O)Cc2cccnc2)[C@H](CO)O1)Nc1ccccc1,2,2,-1.0,i,.,.,.,.,-0.8
Cc1ccc(-c2cc(C(=O)N3CCN(c4ncccn4)CC3)c3cc(Br)ccc3n2)o1,-4,-16,4.5,i,1,0.72,1.2,.,9.3
Cc1cccc(C(C)C)c1NC(=O)CSc1cccc[n+]1[O-],9,13,1.0,i,2,0.69,1.1,1%,-2.1
CCOc1ccccc1OCCCC(=O)NCCc1ccc(S(N)(=O)=O)cc1,-1,4,-1.4,i,-5,0.7,4.0,.,-5.9
CC1CCc2nn(CC(=O)Nc3c(F)cc(F)cc3Br)cc2C1 (centres undefined),4,-3,-0.2,i,.,0.73,5.1,2%,-2.0
Cc1ccc(NC(=O)/C=N/OCC(=O)NCc2ccccc2Cl)cc1,1,3,1.5,i,-12,.,2.1,26%,-5.0
CC1=C(C(=O)OC(C)(C)C)C(c2ccco2)C(C#N)=C(N)O1 (centres undefined),2,-7,-0.3,i,40,0.59,2.5,27%,4.5
O=C(C[C@H]1C[C@@H]2c3cc(NC(=O)Nc4ccc(C(F)(F)F)cc4)ccc3O[C@@H]2[C@@H](CO)O1)NCc1ccccn1,-33,-46,-5.9,i,.,.,.,.,12
C=CCNc1nc2cc(-c3ccccc3OC)sc2c(=O)n1C,-6,-24,-1.2,i,.,.,0.0,.,-2.6
O=C(COC(=O)/C=C/c1cccc(C(F)(F)F)c1)NCCN1C(=O)CSC1=O,5,14,2.1,i,1,0.67,2.8,-8%,3.9
CC(C(=O)OCC(=O)c1ccc([N+](=O)[O-])cc1)N1C(=O)C2C3C=CC(C3)C2C1=O (centres undefined),-4,4,-0.9,i,52,0.64,-3.4,.,-7.0
Cc1cccc(C(=O)Nc2cccc3cccnc23)c1,1,5,-5.0,i,4,0.67,-0.6,.,0.1
O=C(Nc1ccc(F)c(F)c1)C1CCCN1S(=O)(=O)c1ccc(F)cc1 (centres undefined),1,2,-4.3,i,-5,0.76,-3.0,.,-0.2
COC(=O)c1cnn(-c2cc(Oc3ccccc3)ncn2)c1N,.,.,.,.,-7,0.71,-0.6,10%,.
Cc1cc(C)n2cc(CSCc3ccccc3)nc2n1,9,2,2.4,i,0,0.71,-0.8,.,-2.2
C[C@@H]1CN([C@@H](C)CO)C(=O)Cc2cc(NC(=O)CCN3CCOCC3)ccc2O[C@@H]1CN(C)Cc1ccccc1,5,7,-1.6,i,.,.,.,.,1.3
CC(C)c1ccc(/C=N/NC(=O)C(=O)NCCCN2CCOCC2)cc1,4,3,-0.7,i,6,.,-1.9,.,-4.1
COC(=O)c1cn(CCC#N)nc1-c1ccc2ccccc2c1,-24,-31,-4.3,i,-7,0.58,8.3,-3%,-8.2
Cc1noc(C)c1NC(=O)N(C)C[C@H]1Oc2ccc(NC(=O)CCCN(C)C)cc2CC(=O)N([C@@H](C)CO)C[C@@H]1C,1,2,-1.8,i,.,.,.,.,31*
O=C(NC1CC1)C1CCN(S(=O)(=O)c2cc(Cl)ccc2Cl)CC1,-1,13,-2.3,i,7,0.69,12,-2%,0.9

# Compounds listed so far with an aryl methoxy group (8):
SMILES,rRNA inh HTS,rRNA inh HTS OD600,rRNA inh HTS RFP,FGF22 binding,ALR H2O2 inh,E coli growth,HNF4A DNA FP,Vif A3G,MLL AF4-AF9 inh
CCC(Sc1nncn1C)C(=O)Nc1ccccc1OC (centres undefined),.,.,.,.,0,0.66,-2.6,4%,.
COc1ccc(C(=O)Nc2ccc3[nH]ccc3c2)cc1,-31*,-21*,-4.2*,i,-8,0.65,1.0,.,2.9
COc1ccc(NC(=O)N(C)C[C@H]2Oc3c(NC(=O)c4nc5ccccc5s4)cccc3C(=O)N([C@@H](C)CO)C[C@H]2C)cc1,-2&-5,-14&-4,2.7&5.1,i,0,.,1.7,.,4.9&6.0
COc1ccc(N(C(=O)c2snc(C(N)=O)c2N)C(C(=O)NC2CCCC2)c2ccco2)c(OC)c1 (centres undefined),-4,0,3.6,i,.,0.68,3.6,.,14
COc1ccc(S(=O)(=O)NCc2ccco2)cc1-c1nnc2c3ccccc3c(C)nn12,.,.,.,.,-7,0.74,2.8,4%,.
COc1ccc(C2(C)NC(=O)N(CC(=O)Nc3ccc(S(=O)(=O)N4CCCC4)cc3)C2=O)cc1 (centres undefined),-8,-3,4.9,i,-3,0.74,-1.0,.,3.6
COc1ccc2c3c(n(C)c2c1)[C@@H](CO)N(Cc1ccc(F)cc1)CC31CN(CC2CC2)C1,5,-1,-0.3,i,.,.,.,.,6.4
C=CCNc1nc2cc(-c3ccccc3OC)sc2c(=O)n1C,-6,-24,-1.2,i,.,.,0.0,.,-2.6

# This is a subset; count on the stated rates, not on these rows.
